Compound activity: PubChem, Fisher Drug Discovery Resource Center
NPYLR7 ag: mosquito NPYLR7 agonism | activation, % at 10 µM | AID 1259423 | 270,000 compounds, 0.15% hits | HEK293T NPYLR7/Galpha15, GCaMP6s calcium fluorescence; in the data active = activation above about 40%;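 note: 0% = vehicle and 100% = reference agonist at the receptor; some compounds past the cut are filed as inactive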
NPYLR7 ag max-min: second read-out of NPYLR7 ag, no call of its own (marks repeat the call); activation, %; measured here: Max-Min RFU normalised activation; some inactives read as strong as hits;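 span of the calcium signal over five minutes; 0% = vehicle and 100% = native peptide agonist; compound fluorescence can raise it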
* = called active by the depositor; & = joins results of further samples. Only part of the results is shown (hit frequency here may not be typical).

SMILES	NPYLR7 ag	NPYLR7 ag max-min
CSc1ccc(CN2CCCC(CCC(=O)NC3CC3)C2)cc1 (centres undefined)	0	-1
CCc1cnc2c(c1SCC(=O)NCCOC)c(=O)n(C)c(=O)n2C	6	10
O=C(Nc1ccccc1)Nc1ccc(N2CCCC2)c(C(=O)NCCc2ccccc2)c1	-4	-2
Cc1nsc(NC(=O)N2CCOc3ccc(Cl)cc3C2)n1	-3	12
C/C(=C/C(=O)N(Cc1ccco1)c1ccc(F)cc1)C1CC1	-2	-4
COc1ccc(C(=O)N(Cc2ccccc2)C2CCC(NC(=O)C3CCN(S(=O)(=O)c4ccccc4)CC3)CC2)cc1 (centres undefined)	19	18
COc1ccc(OC)c(S(=O)(=O)N2CCN(c3ncccc3C(=O)NCc3cccs3)CC2)c1	19	18
Cn1cccc1CN1CCC(C(=O)NC(c2ccc(-c3ccccc3)cc2)c2cnccn2)CC1 (centres undefined)	-18	-19
CC(c1cccc(Cl)c1)N(C)CCC(=O)N1CCC1 (centres undefined)	9	8
O=C(NNC(=O)c1cc2ccccc2cc1O)c1cccs1	-1	-3

Laid out differently: two of the compounds above.
canonical_smiles,NPYLR7 ag,NPYLR7 ag max-min
CC(c1cccc(Cl)c1)N(C)CCC(=O)N1CCC1 (centres undefined),9,8
O=C(Nc1ccccc1)Nc1ccc(N2CCCC2)c(C(=O)NCCc2ccccc2)c1,-4,-2

Next records
SMILES	NPYLR7 ag	NPYLR7 ag max-min
CCOc1ccc(C(=O)Oc2c(I)c(OCC)cc(OCC)c2C(C)=O)cc1	-2	-4
CNC(=O)c1ccc(CN2CCC=C(CNC(=O)N3CCCC3)C2)o1	28	12
CN1CC(C(=O)Nc2ccc3nc(C4CC4)oc3c2)CC1=O (centres undefined)	2	-1
CN(CC1COc2ccccc2O1)C(=O)c1ccc(N2CCCOCC2)nc1 (centres undefined)	6	3
COCCN(CC(=O)Nc1nc(CC(=O)NCc2ccc3c(c2)OCO3)cs1)C(=O)c1ccccc1	13	20
CC(C)CN(C)C(=O)c1ccc(C(C)C)cc1O	1	655
Cc1ccc(S(=O)(=O)NC(C)c2ccc(C)o2)c(Br)c1 (centres undefined)	0	-1
CCOC(=O)c1cc(Cl)c(OCC(=O)NC(C)C)c(Cl)c1	-1	-2
Cc1cccc(-n2ccnc2-c2cnc(NCC3CCCO3)nc2)c1 (centres undefined)	2	-2
CCCOc1ccc(NC(=O)CC2SC(N3CCOCC3)=NC2=O)cc1 (centres undefined)	-7	1
Cc1cc(C)n(CC(=O)NC2CCCN(C3CCN(C)CC3)C2)n1 (centres undefined)	3	0
Cc1[nH]nc2c1C(c1ccc([N+](=O)[O-])cc1)C(C#N)C(=N)O2 (centres undefined)	4	6
C=CCn1c(-c2ccc(OC)cc2)n[nH]c1=S	7	18
CC(=O)c1ccccc1-c1cnc(-n2cnnc2)cc1C	-4	-4
COC(=NCC(C)C)NC(=O)c1ccccc1C	12	6
COC(=O)C1=C(C)N(C)C(=S)NC1c1ccc(NS(=O)(=O)c2ccc(C(C)(C)C)cc2)cc1 (centres undefined)	12	10
CCc1nc(CN2CC[C@@](C)(O)[C@@H](Cc3ccccc3)C2)c(C)[nH]1	0	1
COc1cccc(OC)c1CNC(=O)CC1NC(=O)c2ccccc21 (centres undefined)	-2	-5
O=C(Cc1ccccc1)Nc1c(F)cccc1C(=O)O	8	5
Cc1cc(CN2CCC(n3cc(-c4cc(F)cc(F)c4)nn3)CC2)n[nH]1	16	3

Sorted by heavy-atom count (smallest number first): part of the list above
SMILES	NPYLR7 ag	NPYLR7 ag max-min
C=CCn1c(-c2ccc(OC)cc2)n[nH]c1=S	7	18
CC(=O)c1ccccc1-c1cnc(-n2cnnc2)cc1C	-4	-4
CCc1nc(CN2CC[C@@](C)(O)[C@@H](Cc3ccccc3)C2)c(C)[nH]1	0	1
COc1cccc(OC)c1CNC(=O)CC1NC(=O)c2ccccc21 (centres undefined)	-2	-5
Cc1cc(CN2CCC(n3cc(-c4cc(F)cc(F)c4)nn3)CC2)n[nH]1	16	3

Additional compounds follow:
SMILES	NPYLR7 ag	NPYLR7 ag max-min
CCCOc1ccccc1C1C(C(=O)OCCOCC)=C(C)NC2=C1C(=O)CCC2 (centres undefined)	4	-9
CCOc1ccc(-c2cc(C(=O)N/N=C\c3ccc(O)c(OC)c3)[nH]n2)cc1	4	10
Cc1ccc(S(=O)(=O)N2CCCC2c2nc3ccccc3[nH]2)c(C)c1 (centres undefined)	-1	4
CCN(CC)c1ccc(NC(=O)CSc2nnc(CN3CCCC3)n2-c2ccccc2)cc1	-2	5
CC1CN(C)CCN1C(=O)c1cn(C)nc1-c1cccnc1 (centres undefined)	1	-2
CCCCCCCC(=O)N(CCOC)CC(=O)N(CCc1c[nH]c2ccccc12)Cc1ccc(F)cc1	15	7
CC1(C(=O)NCC(F)(F)F)CCN1C(=O)c1ccccc1CCc1ccccc1 (centres undefined)	11	7
CCOC(=O)CNC(=O)CSc1nc(=O)n2cc(C)ccc2n1	5	5
CCOc1ccc(C(C2Sc3nc(C)nn3C2=O)N2CCC(C(=O)OC)CC2)cc1 (centres undefined)	0	-2
CN(C)CCN(C(=O)c1ccc([N+](=O)[O-])o1)c1nc2cc3c(cc2s1)OCCO3	-3	-6

Reprinted at random: three records from the list.
SMILES	NPYLR7 ag	NPYLR7 ag max-min
CCOC(=O)CNC(=O)CSc1nc(=O)n2cc(C)ccc2n1	5	5
CCCCCCCC(=O)N(CCOC)CC(=O)N(CCc1c[nH]c2ccccc12)Cc1ccc(F)cc1	15	7
CC1(C(=O)NCC(F)(F)F)CCN1C(=O)c1ccccc1CCc1ccccc1 (centres undefined)	11	7

Further results follow.
SMILES	NPYLR7 ag	NPYLR7 ag max-min
CC(=O)N(O)[C@@H]1c2cc(C#N)ccc2OC(C)(C)[C@H]1O	-4	-8
Cc1ccc(C(=O)Nc2ccc(N(C)C)cc2)s1	2	1
O=C(COc1ccc(Cl)cc1)NCC1CCN(c2nc(Cc3ccc(F)cc3)ns2)CC1	17	19
Fc1ccc(Cn2cccc2CN(Cc2cccc(C(F)(F)F)c2)CC2CCCCC2)cc1	22	30
O=C(CSc1ncccc1C(=O)O)NC12CC3CC(CC(C3)C1)C2	-4	-4
COC(CNC(=O)c1c(O)nc2sccn2c1=O)OC	-2	8
CC(=O)OC12CC3CC(C1)CC(C(=O)NCC1CCN(C)C1)(C3)C2 (centres undefined)	1	-4
C=CCc1cccc2cc(C(=O)Nc3sc(C)c(C)c3C#N)c(=O)oc12	-10	-13
COc1ccc(-c2nc3ccc(C)cn3c2NC(=O)COCc2ccccc2)cc1	-2	0
Cc1ccc(COC2C[C@](OCc3ccccc3C)(C(=O)NCCN3CCOCC3)C[C@H]3OC(C)(C)O[C@@H]23)cc1 (some centres undefined)	4	13
CCC(C)C(NC(=O)Nc1ccccc1F)C(=O)Nc1nnc(-c2ccc(Cl)cc2)s1 (centres undefined)	-4	-4
O=C(NCc1ccc(Cl)cc1)c1c(O)nc2sccn2c1=O	-1	10
CN1CCCCC1CCNC(=O)c1ccc(NCc2cccc(F)c2)nc1 (centres undefined)	17	10
COC(=O)c1ccc(COc2cccc3ccc(N4CCC(C(N)=O)CC4)nc23)cc1	7	6
N#Cc1c(Cl)nsc1N1CCC(C(=O)Nc2ccccc2)CC1	8	2
COc1ccc(-n2c(O)c(C=Nc3ccc(F)cc3)c(=O)[nH]c2=O)cc1	-11	-17
CN(C)c1nc2c(c(N3CCCC4(CC3)CNC(=O)O4)n1)CCCC2 (centres undefined)	4	2
CCOc1cc(C2Nc3ccccc3N=C3CC(C)(C)CC(=O)C32)ccc1OC(C)=O (centres undefined)	0	-2
CCCC(=O)OCC(O)CN(Cc1ccco1)Cc1c(-c2ccccc2)noc1N1CCCCC1 (centres undefined)	10	13
CN(C)c1ccc(CNS(=O)(=O)c2cc3c(cc2Br)OCCO3)cc1F	7	6
Cc1cc(C)cc(C(=O)N2CCC3(CCN(C)C3=O)CC2)c1	5	7
COc1ccc(C)c2sc(NC(=O)c3ccccc3S(C)(=O)=O)nc12	0	-4
COCCN1CC(C(=O)NCc2scnc2-c2ccccc2)CCC1=O (centres undefined)	-1	-5
O=C1/C(=C\c2cc(Br)ccc2O)SC(=S)N1Cc1ccccc1	-5	-11
Cn1nc(C2CCC2)cc1NC(=O)c1cc(Br)cnc1Cl	-1	-2
COc1ccccc1N1CCN(c2ccc(NC(=O)Nc3ccc(Br)cc3)cc2C(=O)NC2CC2)CC1	-8	3
CC1(C)CNC(=O)CN(C(=O)COc2ccccc2)C1	26	25
CCCCC(CC)COCCCNC(=O)c1ccc(-c2ccc3c(c2)OCO3)s1 (centres undefined)	-2	9
Cc1c(C(=O)Nc2ccncc2)cnn1Cc1ccccc1	-2	-3
O=C(COc1coc(CN2CCc3ccccc32)cc1=O)N1CCOCC1	11	7
Cc1nn(-c2ccc(F)cc2)c(C)c1C(=O)NC[C@@H]1CCNC[C@H]1O	7	0
Cc1nc(COP(=O)(O)O)cc(CN(CCN(CC(=O)O)Cc2cc(COP(=O)(O)O)nc(C)c2O)CC(=O)O)c1O.[Mn]	0	6
Cc1cccc(CS(=O)(=O)NCC(c2ccsc2)N(C)C)c1 (centres undefined)	11	0
CC(C)(C)c1cc(C(=O)O)nn2cnnc12	-7	-10
COc1ccc(CN(C)Cc2nc(-c3ccc(C)s3)oc2C)c2cccnc12	-8	-12
COc1cc(CSc2nncn2C)c(OC)cc1Br	-1	3
COc1cc(C2C(C(=O)OC3CCCC3)=C(C)NC3=C2C(=O)CCC3)cc(Cl)c1O (centres undefined)	-4	-9
Cc1ccc(-n2ncc3c(=O)n(NC(=O)c4cccc5ccccc45)cnc32)cc1C	3	0
CNC(=O)[C@@]1(OCc2cccc(F)c2)CC(OCc2ccccc2F)[C@H](O)[C@H](O)C1 (some centres undefined)	7	17
CC(C)CS(=O)(=O)Nc1ccc2c(c1)C(=O)Nc1ccccc1O2	-3	-3
O=C(Cn1cnc2c(Cl)cc(Cl)cc2c1=O)C12CC3CC(CC(C3)C1)C2	1	9
CC(C)n1cc(C(=O)N2CCN(CC(=O)NC3CCCC3)CC2)c2nn(-c3ccccc3)c(=O)c-2c1	-5	-8
CO[C@@]1(NC(=O)C(C(=O)O)c2ccc(O)cc2)C(=O)N2C(C(=O)O)=C(CSc3nnnn3C)CO[C@@H]21 (some centres undefined)	-5&2	-11&-1
CCCCN(CC(=O)N1c2ccccc2-n2cccc2C1c1ccc(OC)cc1)C(=O)Nc1ccc(Cl)c(Cl)c1 (centres undefined)	18	21
CCN(C(=O)c1cc(C)c(-c2ccc(F)cc2)s1)C1CCC1	1	0
COc1ccc(-c2csc(=Nc3ccccc3C(F)(F)F)n2Cc2ccccn2)cc1	4	6
O=C(NCCc1nc(C(F)(F)F)cs1)N1CCCCCC1	4	3
Cc1nn(CC(=O)NC(C)C)c(C)c1S(=O)(=O)N(C)C	5	2
Cc1cc(C(C)(C)C)cc(C)c1S(=O)(=O)NCc1nncn1C	18	8
CCOC(=Nc1sc2c(c1-c1nn[nH]n1)CC(C)(CC)OC2)OCC (centres undefined)	2	43

More entries follow:
SMILES	NPYLR7 ag	NPYLR7 ag max-min
COc1ccc(Cn2c(C3C4CCCCC43)n[nH]c2=S)cc1 (centres undefined)	-12	-17
Cc1ccc(C(=O)Nn2cnc3c(cnn3C(C)(C)C)c2=O)cc1[N+](=O)[O-]	9	8
Cc1ccc(Cn2nc(C)c3cc(C(=O)N4CCCC(C(N)=O)C4)sc32)cc1 (centres undefined)	1	0
Cc1[nH]nc(-c2ccc(F)cc2)c1NC(=O)C(C)(C)C	5	3
COc1cccc(N2C(=O)CSC2c2cccc(NC(=O)c3cccc([N+](=O)[O-])c3)c2)c1 (centres undefined)	2	18
N#CCc1nnc2n1CCCCC2	1&4	1&2
CC(C)Nc1ncccc1C(=O)Nc1ccccc1	-5	-13
Cc1[nH]n(-c2ccc(Cl)c(Cl)c2)c(=O)c1C1=C([n+]2ccccc2)C(=O)N(CC(C)C)C1=O	3	2
COc1ccc(N2C(=O)C3C(C2=O)C2(C)C=CC3(C)O2)c([N+](=O)[O-])c1 (centres undefined)	-11	-21
N#Cc1ccc(-c2ccc3c(n2)C(=O)N(CC(=O)NCc2ccccc2)C3)cc1	-14	-15
CC(NC(=O)c1ccc[nH]1)c1cccc(N2CCCC2)c1 (centres undefined)	4	0
CCc1nc2ccc(C(=O)N3CCCCC3)cn2c1N(C)Cc1cc2ccccc2s1	13	8
COc1nc(-c2ccc3c(c2)OCO3)n(-c2ccc(NC(=O)CSc3ccccc3)cc2)n1	3	-3
CSc1ccc(NC(=O)N(CC(=O)Nc2cc(C(C)(C)C)nn2-c2ccc(C)cc2)Cc2ccccc2)cc1	19	18
CSc1sc(C)cc1-c1nsc(=O)o1	0	-2
COC(=O)CCCC(=O)NC1CC(=O)N(CC(C)(C)C)C1 (centres undefined)	-2	-5
CC(=O)N1CCN(c2ncccc2CNC(=O)CSc2ccccc2)CC1	15	4
CC(C)(C(=O)N1CCN(c2ccc(S(C)(=O)=O)cc2[N+](=O)[O-])CC1)c1ccccc1	1	0
CCc1ccc(-c2cc3c(=O)n(Cc4ccc(C)cc4)ccn3n2)cc1	-1	-6
Cc1ncoc1C(=O)N1CCc2c([nH]c3ccccc23)C1c1ccccc1F (centres undefined)	-4	-7
N#Cc1nncn1CN1CCN(S(=O)(=O)c2cc(C(F)(F)F)cc(C(F)(F)F)c2)CC1	14	10
O=C(NC(C(=O)N/N=C\c1coc2ccccc2c1=O)c1n[nH]c(=O)c2ccccc12)c1ccccc1 (centres undefined)	-10	-16
Cc1ccc(C=C2NC(=S)NC2=O)c(C)c1	7	10
Cc1cn2c3c(=O)n(Cc4ccccc4)c(=O)n(C)c3nc2n1CCOCCO	0	5
CC(C)C1CN(c2cc(N)ncn2)CCCN1CC1CC1 (centres undefined)	5	3
N#Cc1ccc(C2=CC3C=CSC3=N2)cc1 (centres undefined)	8	6
Cc1c(CNCCN2CCc3ccccc3C2)c2ccccc2n1CC(N)=O	-1	-4
